Screening data as filed in PubChem BioAssay.
Cruzain noTriton = blocks cruzain activity in detergent-free assay | P25779 | purified cruzain, Z-FR-AMC fluorescence, no detergent | Potency, µM, without a hit: max response, negative = inhibition, most hits filed as inhibitors | 200,000 tested, 2.3% active; active = well fitted curve in the direction sought with a large enough effect; inconclusive = small, poorly fitted or top-dose-only effect, or another doubt; inactive = no such curve, though single readings can be large; an effect the other way counts as inactive or inconclusive;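 note: plate controls were enzyme without inhibitor for no effect and buffer without enzyme for full effect; nearly all actives have a fitted effect of over 40% in size; top concentration of the series not given in the record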
Target sequence (P25779 123-467 limits assumed): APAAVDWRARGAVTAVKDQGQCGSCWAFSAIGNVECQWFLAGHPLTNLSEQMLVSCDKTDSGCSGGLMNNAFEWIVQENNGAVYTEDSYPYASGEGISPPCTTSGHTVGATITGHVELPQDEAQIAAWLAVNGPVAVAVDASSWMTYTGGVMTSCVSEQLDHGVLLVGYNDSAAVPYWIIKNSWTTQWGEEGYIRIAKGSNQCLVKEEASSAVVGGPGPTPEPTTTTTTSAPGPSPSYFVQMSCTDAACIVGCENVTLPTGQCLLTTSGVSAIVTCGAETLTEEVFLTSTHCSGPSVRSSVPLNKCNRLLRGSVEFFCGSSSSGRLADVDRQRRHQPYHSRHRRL
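Detergent-free condition (0.00005% Triton X-100) in acetate buffer pH 5.5 with DTT. 1.5 nM enzyme and compound were pre-mixed 15 min, then 2 uM Z-FR-AMC substrate added; reaction progress from fluorescence change between first and third reads (60 s).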
Cruzain inh Det = inhibitors of Trypanosoma cruzi cruzain with detergent; 200,000 tested, 0.43% active; AID 1478; Potency, µM, for inactives: max response, negative = inhibition, hits mostly inhibitors; P25779; purified cruzain, Z-FR-AMC fluorescence, 0.01% Triton; active = well fitted curve in the direction sought with a large enough effect; inconclusive = small, poorly fitted or top-dose-only effect, or another doubt; inactive = no such curve, though single readings can be large; an effect the other way counts as inactive or inconclusive;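 note: plate controls were neutral wells for no effect and buffer without enzyme for full effect; nearly all actives have a fitted effect of over 40% in size; top concentration of the series not given in the record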
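Sodium acetate buffer (100 mM, pH 5.5) containing 5 mM DTT and 0.01% Triton X-100 hosted 1.5 nM cruzain and test compound for 15 min at room temperature. Cleavage of 2 uM Z-FR-AMC was then tracked by fluorescence.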
RE007 growth inh = less growth of the S. pombe RE007 Vpr strain | S. pombe RE007 Vpr strain, BacTiter-Glo ATP luminescence, 24 h; control for the full effect not named in the record | AID 651644 | Potency, µM (doses to about 92.2 µM), for the others: at the highest dose activity change, negative = less growth | 360,000 tested, 0.21% active; active = well fitted falling curve with a large enough effect; inconclusive = small, poorly fitted or top-dose-only effect; inactive = no such curve, though single readings can be large or run the other way;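 note: % is set by controls: 0 for no effect and ±100 for the full control effect; nearly all actives have a fitted effect of over 50% in size; the assay follows cell death caused by Vpr and the record does not say whether a fall means rescue or toxicity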
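Fission yeast strain RE007, carrying one chromosomally integrated HIV-1 vpr copy, was seeded at OD 0.01 in PMG+AL medium with 23 nL pinned compound. After 24 h at 30 °C and 99% humidity, viability was read by BacTiter-Glo luminescence.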
2A StopGo = lowers the luciferase signal of an FMDV 2A StopGo reporter; Potency, µM (top dose mostly 57.9 µM), for inactives: top-dose signal change, negative = less light; 410,000 tested, 1.2% active; human cells with a luciferase reporter of 2A StopGo recoding; control for the full effect not named in the record; active = well fitted falling curve with a large enough effect; inconclusive = small, poorly fitted or top-dose-only effect; inactive = no such curve, though single readings can be large or run the other way; tested in HEK293T cells; note: % is set by controls: 0 for no effect and ±100 for the full control effect; nearly all actives have a fitted effect of over 45% in size; luciferase light after 4 h
NS1 function inh = blocks influenza NS1 protein function | S. cerevisiae slowed by influenza A NS1, growth recovery by OD600 | Potency, µM (series often up to 46.1 µM), for inactives: top-dose activity, positive = more growth | 270,000 tested, 0.4% active; note: actives are rising curves; nearly all actives have a fitted effect of over 50% in size
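A cell-based growth assay was used: compounds that relieve NS1-induced slow growth of budding yeast raise OD600. Assay medium was yeast nitrogen base with ammonium sulphate and -URA supplement, pH 6.0, with 2% galactose.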
LASV entry inh = blocks Lassa virus binding to or entry into cells; Lassa virus pseudotype entry inhibition, cell reporter; control for the full effect not named in the record; Potency, µM (doses to about 37.9 µM), inactives show at the top dose activity change, negative = inhibition, actives largely listed as inhibitors; 300,000 tested, 1.2% active; AID 540256; active means well fitted inhibition curve with a large enough effect; inconclusive means small, poorly fitted or top-dose-only effect, or effect the other way; inactive means flat fitted curve, though single readings scatter; tested in HEK293 cells; note: % is set by controls: 0 for no effect and ±100 for the full control effect; nearly all actives have a fitted effect of over 50% in size; luciferase read-out
Marburg entry inh = blocks Marburg virus binding to or entry into cells. Marburg virus pseudotyped entry inhibition, cell reporter; control for the full effect not named in the record; about a third of the inactives were read at about 46 µM. Potency, µM (titrated, usually from 37.8 µM), inactives show top-dose activity change, negative = inhibition, usual class: inhibitors. 300,000 tested, 1.8% active; active = well fitted inhibition curve with a large enough effect; inconclusive = small, poorly fitted or top-dose-only effect, or effect the other way; inactive = flat fitted curve, though single readings scatter; tested in HEK293 cells; about a fifth of its hits are not listed in these tables; note: % is set by controls: 0 for no effect and ±100 for the full control effect; luciferase read-out
SARS PLP yeast = inhibitors of SARS-CoV papain-like protease in yeast; S. cerevisiae expressing SARS-CoV PLpro, growth rescue; control for the full effect not named in the record; 330,000 tested, 0.19% active; Potency, µM (titrated, usually from 32.9 µM), inactives show at the highest dose activity, positive = growth rescue; note: 0% is about no effect; nearly all actives have a fitted effect of over 55% in size; growth read by luminescence after 48 h
* marks the source's active call; other numbers are inactive results; ? = inconclusive; . = no result given; [ ] = another dose, or the depositor's remark. Unless noted, calls come from the whole dose curve; as a rule, active means well fitted rising curve with a large enough effect; inconclusive means small, poorly fitted or top-dose-only effect; inactive means no such curve, though single readings can be large or run the other way. Potency is the fitted concentration of half-maximal effect.

Compound	Cruzain noTriton	Cruzain inh Det	RE007 growth inh	2A StopGo	NS1 function inh	LASV entry inh	Marburg entry inh	SARS PLP yeast
CN(C)/C=C/C(=O)c1ccc(Br)cc1	.	.	-19%	26%	-62%	25%[46.1 µM]	-8%[46.1 µM]	-4%
CC(C)c1ccc(CNc2ncc(Br)cn2)cc1	.	.	3%	50%[activator]	2%	.	.	1%
O=c1[nH]c2ccc(NCc3ccc(F)cc3)cc2[nH]1	.	.	-3%	10%	15%	.	.	3%
COCCN1CCC(CNCc2cn(-c3cc(C)ccc3C)nc2-c2ccccc2)C1 (stereo unspecified)	.	.	-18%	-6%	2%	.	.	0%
O=C(Nc1cccc(S(=O)(=O)NCc2ccco2)c1)c1cc(-c2ccc(F)cc2)nc2ccccc12	?	-10%	0%	12%	?	?	?	-3%
CCn1c(=N)n(CCOc2ccc(Br)cc2)c2ccccc21	-4%	0.3%	.	?	.	-31%[46.1 µM]	.	.
COc1ccc(Nc2nc(N)nc(CSC(=S)N3CCN(c4ccccc4)CC3)n2)cc1	?	-1.4%	6%	-27%	18%	?	?	3%
CCCCn1c(O)c(/C=N/NC(=O)c2ccncc2)c(=O)[nH]c1=O	.	.	4%	-1%	-1%	3%	6%[46.1 µM]	0%
COc1cccc(NC(=O)c2ccc(S(=O)(=O)N3CCCCC3)cc2)c1	?	-6.5%	-1%	-29%	-84%	.	.	-11%
Cc1cc(C(=O)OCCO)c(C#N)c(N)n1	-18%	-5.4%	-1%	7%	7%	-14%	-14%	2%
COc1ccc(C(=O)C2CCCN(Cc3ccsc3)C2)cc1OC (stereo unspecified)	.	.	-15%	3%	7%	-9%[46.1 µM]	?	1%
CC(=O)NC1C(=O)N(CC(C)C)c2ccccc21 (stereo unspecified)	1%	-1.1%	-7%[3.69 µM]	-10%	1%	4%	6%	6%
Cc1cccc(Nc2nnc(SCC(=O)NC3CCCc4ccccc43)s2)c1C (stereo unspecified)	-16%	-6.2%	-9%	40µM*	22%	?	?	3%
CCC1CCCCN1C(=O)COc1ccc2c3c(c(=O)oc2c1)CCC3 (stereo unspecified)	.	.	22%	-10%	.	-27%	4%	-4%
Cc1ccccc1CN(c1ccc(C(=O)Nc2cccnc2)cc1)S(C)(=O)=O	2%	3.8%	-3%[3.69 µM]	-20%	-2%	11%	10%	0%
Cc1c(CN(C)C)c2c(n1Cc1ccccc1)C(=O)c1ccccc1-2	-7%	-1.3%	14%	-12%	-2%	-14%	?	0%
O=C(CCc1cn(Cc2ccc(F)cc2)c2ccccc12)NCCc1ccc(Cl)cc1	-26%	-5.6%	.	-9%	.	14%[46.1 µM]	.	.
CC(Sc1nnc2ccccn12)C(=O)Nc1ccc2c(c1)OCCO2 (stereo unspecified)	.	.	-3%	29%	.	13%	2%[46.1 µM]	0%
Cc1cccc(-n2ncc(C#N)c2N)c1	-6%	-1.5%	-8%	-17%	5%	14%	3%[46.1 µM]	0%
C=CCn1c(SCCN2CCOCC2)nc2c1c(=O)[nH]c(=O)n2C	-5%	-1.8%	-17%	7%	2%	-11%	23%[46.1 µM]	3%
CCCCN(Cc1ccccc1)S(=O)(=O)c1ccc2c(c1)CCN2C(=O)C1CCC1	4%	-1.3%	.	18%	.	0%[46.1 µM]	5%[46.1 µM]	.
CC(C)C(=O)Nc1ccc(-c2nc3ncccc3o2)cc1	.	.	7%	-7%	-18%	.	.	-7%
O=C(Nc1ccccc1F)N(Cc1ccc(F)cc1)Cc1nc2ccccc2c(=O)[nH]1	.	.	-18%	-4%	8%	-14%[46.1 µM]	-4%[46.1 µM]	-1%
O=S(=O)(NC1CC1)c1ccc(S(=O)(=O)N2CCCc3ccccc32)cc1	-1%	-4.4%	12%	.	-2%	?	?	0%
CCCC/S(C)=N/S(=O)(=O)c1ccc(C)cc1 (stereo unspecified)	6%	-1.5%	16%	-12%	2%	-10%	7%	14%
CS(=O)(=O)Nc1ccc(C(=O)NC2CC3CCC2C3)cc1 (stereo unspecified)	4%	0.6%	6%	18%	10%	6%	0%	7%
CCC(=O)Nc1ccc2c(c1)nc(CCN1CCN(c3ccccn3)CC1)n2C	.	.	-7%	-3%	3%	-8%[46.1 µM]	?	1%
Fc1ccc(OCCOCCNCC2CCCO2)cc1 (stereo unspecified)	0%	-0.7%	-2%	11%	3%	4%	?	4%
Cn1c(-c2cccc([N+](=O)[O-])c2)cnc1NCc1cccc(F)c1	.	.	-5%	-11%	-6%	.	.	-1%
Cc1cccc(NC(=O)CN2C(=O)COc3ccc(S(=O)(=O)Nc4ccccc4)cc32)c1C	?	2.9%	.	37%[activator]	.	6%[46.1 µM]	.	.
CC(C)(C)c1ccc(C(CC(=O)O)NC(=O)Cc2ccc(Cl)cc2)cc1 (stereo unspecified)	.	.	9%	-17%	13%	.	.	0%
Cc1ccc(C(=O)CSc2ncc3c(n2)-c2ccccc2N(Cc2ccc(Cl)cc2)S3(=O)=O)cc1	-9%	2.1%	.	1%	.	20%[46.1 µM]	.	.
CCOc1ccc(CNC(=O)CCn2c(=O)oc3ccccc32)cc1	16%	4.5%	-14%	19%	-18%	2%	-7%	7%
O=C(CN1CCN(C2CCCCC2)C(=O)C1=O)Nc1ccc(Cl)cc1	1%	0.1%	.	0%	.	10%[46.1 µM]	.	.
O=C(Cn1cnc2onc(-c3ccc(F)cc3)c2c1=O)Nc1cccc(C(F)(F)F)c1	-21%	-1.2%	.	?	.	4%[46.1 µM]	.	.
CCOc1c2ccc(C(=O)NCc3ccc(C)cc3)cc2nn1CCOC	-3%	-5.8%	12%	-7%	-5%	.	.	2%
CCN(CC)CCOC(=O)c1ccc(NC(=O)C(C)NC(=O)C23CC4CC(CC(C4)C2)C3)cc1 (stereo unspecified)	9%	1.1%	2%	7%	5%	-4%	-14%	14%
Cc1nc(C)c2c(=O)cc(-c3ccccc3)[nH]c2n1	-4%	0.2%	-9%	-18%	0%	?	?	6%
CN(/N=C/c1ccncc1)C1=NS(=O)(=O)c2ccccc21	3%	-1.6%	-2%	-11%	1%	?	-3%	0%
CCOC(=O)c1cc2c(nc1N)CC(C)(C)OC2	-2%	-14%	1%	26%	-1%	?	19%	-19%
O=C(CSc1nnc(CNC(=O)c2c(F)cccc2Cl)o1)Nc1ccc2c(c1)OCCO2	-7%	-1.0%	?	16%	-3%	6%	?	-2%
COc1ccc(NC2CC(=O)N(C)C2=O)cc1 (stereo unspecified)	3%	0.9%	2%	11%	12%	14%	4%	2%
Nc1cc(N)nc(SCC(=O)NCc2ccco2)n1	.	.	-16%	4%	6%	-26%[46.1 µM]	-9%[46.1 µM]	3%
COc1ccc(S(=O)(=O)NC(C)C)cc1C(=O)NC1CCCCC1	-7%	0.0%	-2%	-10%	1%	-3%	4%	-9%
COc1cccc(-c2csc(NC(=O)Oc3ccccc3)n2)c1	10%	-1.0%	-11%	.	-52%	8%	17%	-43%
Cc1cc(C)nc(SCC(=O)N/N=C/c2cccs2)n1	6%	-5.6%	-4%	0%	13%	?	?	8%
Cc1cccc(NC(=O)C2CCN(S(=O)(=O)c3ccc4c(c3)CCCC(=O)N4)CC2)c1	1%	-3.0%	.	-26%	.	23%[46.1 µM]	.	.
COc1cc(N)c(Cl)cc1C(=O)OCC(=O)NCC1CCCCC1	.	.	10%	-18%	.	-29%[46.1 µM]	?	-2%
Cc1cc(C)n(CC(O)COc2ccc(F)cc2)n1 (stereo unspecified)	.	.	-8%	5%	3%	.	.	-2%
CCCC(C)C(=O)Nc1ccccc1C(=O)OCC (stereo unspecified)	-1%	2.3%	2%	-24%	1%	12%	?	0%
Cn1cnc(S(=O)(=O)Nc2ccccc2N2CCOCC2)c1	.	.	1%	1%	0%	?	-21%	0%
CCCn1c(C2CC(=O)N(c3ccc(C)cc3)C2)nc2ccccc21 (stereo unspecified)	0%	0.1%	-19%[3.69 µM]	-4%	-6%	2%	4%	?
C=CCN1C(=O)c2ccc(C(=O)N3CCN(S(=O)(=O)c4ccccc4Br)CC3)cc2C1=O	.	.	2%	0%	.	2%	-11%[46.1 µM]	0%
Cc1ccc(CSc2oc(-c3cccs3)nc2S(=O)(=O)c2ccc(C)cc2)cc1	2%	0.5%	.	?	.	?	-16%[46.1 µM]	.
Nc1ncnc2c1ncn2CCc1ccccc1	.	.	3%	9%	-3%	2%[46.1 µM]	?	1%
Cc1ccc(Oc2c(C(F)(F)F)oc3c(CN4CCC(C)CC4)c(O)ccc3c2=O)cc1	7%	-1.2%	.	-4%	.	10%[46.1 µM]	25%[46.1 µM]	.
CC(CCc1ccccc1)NC(=O)/C=C/c1ccccc1 (stereo unspecified)	-8%	2.9%	15%	0%	-69%	?	-15%	-16%
CCn1cc(S(=O)(=O)Nc2nc3ccc(OC)cc3s2)cn1	.	.	3%	44%[activator]	2%	.	.	1%
CCOCCCNC(=S)N(CCCN(C)C)Cc1cc2cc3c(cc2[nH]c1=O)OCCO3	.	.	-9%	-1%	21%	.	.	-8%
CCOC(=O)c1c(S(=O)(=O)N2CCCC(C(=O)Nc3cc(C)ccn3)C2)c(C)n(C)c1C (stereo unspecified)	-2%	2.2%	.	-18%	.	-3%[46.1 µM]	.	.
c1ccc(-c2nnc3sc(Cc4cccs4)nn23)cc1	-13%	-0.8%	3%	26%	-9%	?	?	-18%
CC(C)(C)NC(=O)C1Cc2ccccc2CN1 (stereo unspecified)	.	.	2%	15%	.	?	0%[46.1 µM]	0%
